Screens as filed in PubChem BioAssay.
MbtI inh: blocks the Mycobacterium tuberculosis siderophore enzyme MbtI | P9WFX0 | 100,000 compounds, 0.89% hits | purified MbtI enzyme, fluorescence intensity read-out | inhibition, %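 (about 17 µg/mL by stock and volumes)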;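 active means above 50% in both replicates, above 80% if mildly self-fluorescent; inactive means the rest, strongly fluorescent compounds included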;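 further: 0% = mean of negative and 100% = mean of positive controls; one replicate is shown; some compounds called inactive have numbers as strong as hits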
Target sequence (P9WFX0 whole entry, looked up): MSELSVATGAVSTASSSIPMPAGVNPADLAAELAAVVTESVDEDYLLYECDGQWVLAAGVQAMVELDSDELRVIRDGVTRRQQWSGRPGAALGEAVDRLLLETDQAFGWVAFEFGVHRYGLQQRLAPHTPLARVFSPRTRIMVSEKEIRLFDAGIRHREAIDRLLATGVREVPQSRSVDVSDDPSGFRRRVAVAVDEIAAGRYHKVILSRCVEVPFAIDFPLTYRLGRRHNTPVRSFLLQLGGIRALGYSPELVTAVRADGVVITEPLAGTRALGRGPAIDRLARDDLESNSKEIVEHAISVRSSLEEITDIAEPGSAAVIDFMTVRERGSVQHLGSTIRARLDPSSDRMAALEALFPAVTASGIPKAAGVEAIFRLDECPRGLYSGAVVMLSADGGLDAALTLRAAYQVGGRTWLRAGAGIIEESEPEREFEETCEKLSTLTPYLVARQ
MenB inh: inhibitors of Mycobacterium tuberculosis MenB enzyme | 100,000 compounds, 0.43% hits | P9WNP5 | MenB enzyme assay, absorbance read-out; some hits fall short of the stated cut | inhibition, %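 (about 12 µg/mL by stock and volumes)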;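 active means mean of two replicates above 30%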;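 further: 0% = no compound and 100% = wells with inactive enzyme; the first replicate is given; strong numbers were not always called active; inactives centre near -10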
PV pol inh: inhibitors of poliovirus RNA polymerase binding and polymerization | P03300 | poliovirus polymerase elongation, fluorescence polarization; active compounds read low | % elongation, % (compound at 16.7 µg/mL) | 150,000 compounds, 0.66% hits | AID 588519; in the data active means % elongation below about 90%; further: some results filed as inactive read as strong as hits
Target sequence (P03300 1749-2209 limits assumed): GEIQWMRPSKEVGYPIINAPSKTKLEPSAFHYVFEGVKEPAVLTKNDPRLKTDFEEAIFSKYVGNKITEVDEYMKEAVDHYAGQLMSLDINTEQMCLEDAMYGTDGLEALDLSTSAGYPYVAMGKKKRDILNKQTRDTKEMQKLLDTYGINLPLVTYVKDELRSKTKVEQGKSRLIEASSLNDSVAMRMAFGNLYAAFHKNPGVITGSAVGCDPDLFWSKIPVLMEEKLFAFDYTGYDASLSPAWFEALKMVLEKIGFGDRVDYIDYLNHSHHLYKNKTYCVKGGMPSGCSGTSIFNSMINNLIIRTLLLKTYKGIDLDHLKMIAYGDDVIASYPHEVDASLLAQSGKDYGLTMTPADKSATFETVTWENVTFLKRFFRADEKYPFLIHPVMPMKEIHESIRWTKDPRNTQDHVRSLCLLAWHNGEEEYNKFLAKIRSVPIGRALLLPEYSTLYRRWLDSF
PV pol inh intensity: further read-out of PV pol inh, marked with its call; % elongation; measured here: total intensity read-out; formula for this scale not given here;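 total fluorescence in place of polarization; lower means less elongation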
* = called active by the depositor; . = not tested or not shown; & = joins results of further samples. This is a random part of the collection. About 1.8% of those tested had a hit in this group.

SMILES	MbtI inh	MenB inh	PV pol inh	PV pol inh intensity
Cc1ccccc1NC1c2ccccc2C(=O)N1Cc1ccco1 (stereo not drawn)	16	-5	101	104
CCOc1cc(/C=C/c2ccccc2OC)cc(=O)c2c(C)oc(C)c12	0	-9	99	112
Cn1c(=Nc2cccc(O)c2)sc2ccccc21	-6	-8	102	101
O=C1C2C3C=CC(C3)C2C(=O)N1NC(=O)C12CC3CC(CC(C3)C1)C2 (stereo not drawn)	2	4	102	97
OC1(C(F)(F)F)CC(C23CC4CC(CC(C4)C2)C3)=NN1 (stereo not drawn)	-22	9	104	111
CCOC(=O)C1CCCN(c2c(N)n(CC)c(=O)[nH]c2=O)C1 (stereo not drawn)	13	-12	103	106
CS(=O)(=O)c1ccc(NC(=O)C2CCCC2)cc1	2	8	106	113
CCOc1ccc(CCNC(=O)c2cccc3c2SCCC3=O)cc1OCC	-11	-11	101	99
O=c1c(=O)n(Cc2ccc(Cl)cc2)ccn1Cc1ccccc1	185	-22	106	108
Cc1cc(C)cc(C(=O)Nc2ccccc2N2CCOCC2)c1	-9	-10	100	101
CCSC(=O)NC12CC3CC(CC(C3)C1)C2	0	-3	101	103
CC(C)N1CC(C(=O)N2CCN(Cc3ccccc3)CC2)CC1=O (stereo not drawn)	-1	0	101	103
Cc1ccc(C(=O)N2CCCC2)cc1NC(=O)c1ccco1	-13	-2	101	104
CCOC(=O)N1N=C(C)CC1(O)c1cccnc1 (stereo not drawn)	-2	-14	101	106
CC1CCCN(C(=O)COC(=O)/C=C/c2ccc(C(F)(F)F)cc2)C1 (stereo not drawn)	2	13	98	97
COC(=O)c1sc(=S)n(-c2cccc(Cl)c2)c1N	94*	-24	95	92
O=C(CNC(=O)C1CCCCC1)Nc1nc(CC23CC4CC(CC(C4)C2)C3)cs1	-8	-12	104	109
CCc1ccccc1-n1ncc2c1ncn1nc(-c3ccncc3)nc21	-6	-36	102	98
Cn1nc(-c2ccc(Cl)cc2)[nH]c1=O	1	0	104	104
O=C(C1CCCCC1)N1CC(=O)N2CCc3ccccc3C2C1 (stereo not drawn)	7&-19	1&-9	98&102	100&100

Just MbtI inh, PV pol inh and MenB inh (2 entries from above):
mol	MbtI inh	PV pol inh	MenB inh
Cc1ccc(C(=O)N2CCCC2)cc1NC(=O)c1ccco1	-13	101	-2
CCc1ccccc1-n1ncc2c1ncn1nc(-c3ccncc3)nc21	-6	102	-36

Later entries:
SMILES	MbtI inh	MenB inh	PV pol inh	PV pol inh intensity
CCC(C)(C)C1CCc2nc3ccccc3c(C(=O)OCC(N)=O)c2C1 (stereo not drawn)	-7	.	102	98
COc1ccccc1NC(=O)CN(Cc1ccco1)C(=O)c1cc(C2CC2)nn1-c1ccccc1	8	-59	107	97
CN(C)c1c(/C=C(/C#N)S(C)(=O)=O)cc(/C=C(/C#N)S(C)(=O)=O)c(N(C)C)c1C#N	1	-58	129	178
COc1ccc(CN(Cc2nc3ccccc3c(=O)[nH]2)C(=O)Nc2ccccc2)cc1	0	-10	103	104
O=C(O)/C=C/C(=O)N1CCN(C(=O)/C=C/C(=O)O)CC1	.	-8	105	108
COc1ccc(OC)c(N(CC(=O)N2CCN(c3ccccc3F)CC2)S(C)(=O)=O)c1	-18	-13	100	100
O=C(CCCN1CCNCC1)c1ccc(F)cc1	.	8	98	105
Cc1csc(NC(=O)c2sc3nc4c(c(C(F)(F)F)c3c2N)CCC4)n1	.	-47	45	247
Cc1onc(-c2ccc(Cl)cc2)c1-c1ccnc(SCc2ccccc2)n1	2	-24	101	104
O=C1NCCCC2c3cc(O)ccc3OC12N1CCCCC1 (stereo not drawn)	10	-7	104	100
C=CCNC(=O)CSc1nnc(Cc2cccc3ccccc23)n1N	-7	5	104	105
O=C(Nc1ccc2c(C(F)(F)F)cc(=O)oc2c1)c1cc(Cl)cc(Cl)c1	-22	-8	113	112
O=C(CCNS(=O)(=O)c1ccccc1)Nc1ccccc1	-7	-48	103	102
CC(=O)N(c1ccc(C(C)C)cc1)C1C=CS(=O)(=O)C1 (stereo not drawn)	-4	11	103	106
C=C(NCc1ccco1)c1ccc(Cl)cc1	-11	-12	105	104
CC(C)Cc1ccc(C(C)C(=O)Nc2ccc(Cl)cc2)cc1 (stereo not drawn)	-13	-31	105	107
O=C(CC12CC3CC(CC(C3)C1)C2)Nc1ccc(N2CCN(C(=O)c3ccco3)CC2)cc1	-18	-17	100	102
COc1ccc(OC)c(C(=O)COC(=O)c2ccc3ccccc3n2)c1	16	-8	105	110
CCOC(=O)C/C(C)=N/n1c(C)cc(C)c(C#N)c1=O	8	-15	107	105
O=C(CS(=O)(=O)c1ccc2ccccc2c1)N1CCCCCC1	-2	12	100	99
COc1ccc(Br)cc1C=Nc1ccc2[nH]c(=O)[nH]c2c1	-120	-15	102	100
c1cc(-c2cc(-c3nc4c5c(ncn4n3)CCC5)[nH]n2)ccn1	-5	5	99	103
CCN(CC)S(=O)(=O)c1ccc2oc(C(=O)Nc3ccc(C)c(C)c3)c(C)c2c1	60	3	100	102
COC(Cn1c(SCc2ccc(Cl)cc2)nnc1-c1ccccc1)OC	-5	-13	107	107
CCOc1cc(C=C2C(=O)OC3(CCCC3)OC2=O)cc(I)c1O	23	-3	102	102
CC1(C)OC(c2ccccc2)CC1=O (stereo not drawn)	3	7	104	103
O=C(Nc1nc(-c2ccccc2)cs1)c1ccccc1	53	.	97	98
CCOC(=O)C(CC)n1cnc2c(oc3ccccc32)c1=O (stereo not drawn)	14	-12	103	105
N#Cc1ccsc1NC(=O)COC(=O)C1CC(=O)N(Cc2ccco2)C1 (stereo not drawn)	6	5	107	143
O=C(NCc1ccccc1CN1CCCC1)c1cc2cc(Cl)ccc2o1	-7	-18	107	114
CCCCN1C(=O)c2[nH]nc(-c3ccccc3O)c2C1c1cccc(O)c1 (stereo not drawn)	-1	1	102	99
CC1CC(C)CN(CC(=O)c2ccccc2Br)C1 (stereo not drawn)	-5	5	102	105
CCn1c(C(=O)O)c(CNCc2ccc(C)o2)c2ccc(OC)cc21	-233	-5	103	102
Cn1c(COc2ccccc2O)[n+](C)c2ccccc21	-10	.	104	104
Cc1ccc(N=c2scc(-c3ccco3)n2/N=C/c2ccncc2)c(C)c1	91	-45	112	124
O=C(NC1CC2CCCC(C1)N2CC(=O)N1CCCc2ccccc21)c1ccccc1 (stereo not drawn)	-9	-33	102	99
NCc1nc(-c2ccccc2)no1	-1	17	100	101
O=c1c2ccccc2nc(SCc2ccccc2)n1OCc1ccccc1	.	-2	105	111
CCOc1nc(NCCO)nc(NCCC2=CCCCC2)n1	5	15	101	102
CCCC(=O)C1CCN(C(=O)c2ccc(C(C)(C)C)cc2)CC1	-14	-11	102	102

Among those listed so far, these have bromine.
SMILES	MbtI inh	MenB inh	PV pol inh	PV pol inh intensity
COc1ccc(Br)cc1C=Nc1ccc2[nH]c(=O)[nH]c2c1	-120	-15	102	100
CC1CC(C)CN(CC(=O)c2ccccc2Br)C1 (stereo not drawn)	-5	5	102	105

(further entries)
SMILES	MbtI inh	MenB inh	PV pol inh	PV pol inh intensity
N#Cc1c(N)n(-c2cccc(C(F)(F)F)c2)c2nc3ccccc3nc12	-422	.	101	103
CCCNC(=O)NCC1CCN(Cc2ccccc2)CC1	6	-39	102	103
O=C(Nc1ccc(OC(F)(F)F)cc1)c1ccccn1	-5	7	110	103
Clc1ccc(-n2cc(-c3ccccc3)c3c(NCCCN4CCOCC4)ncnc32)cc1	1	-26	101	94
COc1ccc(Nc2cc(N3CCCC3)ncn2)cc1	-1	-2	100	105
O=C(Nc1ccc2c(c1)C(=O)OC2)c1cc2ccccc2s1	-5	-13	104	101
COc1ccc(Cl)cc1NC(=O)CN1C(=O)CSc2ncccc21	5	4	103	100
O=C(NC(=S)Nc1ccc(-n2nncc2-c2ccco2)cc1)C12CC3CC(CC(C3)C1)C2	0	-32	104	101
CC/C(C)=C(\C#N)c1nc2ccccc2[nH]1	-5	-4	101	110
COC1=CC(=O)c2ccccc2C1=O	3	-7	85*	83*

Reprinted from the part before: six compounds, followed by the next part.
SMILES	MbtI inh	MenB inh	PV pol inh	PV pol inh intensity
COc1ccc(Nc2cc(N3CCCC3)ncn2)cc1	-1	-2	100	105
O=C(Nc1ccc2c(c1)C(=O)OC2)c1cc2ccccc2s1	-5	-13	104	101
COc1ccc(Cl)cc1NC(=O)CN1C(=O)CSc2ncccc21	5	4	103	100
O=C(NC(=S)Nc1ccc(-n2nncc2-c2ccco2)cc1)C12CC3CC(CC(C3)C1)C2	0	-32	104	101
CC/C(C)=C(\C#N)c1nc2ccccc2[nH]1	-5	-4	101	110
COC1=CC(=O)c2ccccc2C1=O	3	-7	85*	83*
Cc1nnc2n1CCCCC2	-9	-30	103	107
CCOC(=O)C1CCN(C(=O)c2coc3ccccc3c2=O)CC1	-6	-18	106	104
Cc1ccc(-c2nc3sccn3c2Nc2ccccc2)cc1	-12	-13	101	102
Cc1ccc(C(=O)NC(=S)Nc2ccc(NC(=O)c3ccco3)cc2)cc1C	-2	-14	102	105
CN1CCc2c(C#N)c(Cl)nc(NCc3ccccc3)c2C1	55	-5	102	103
CC1=CC(=O)N(c2c(C)n(C)n(-c3ccccc3)c2=O)C1=O	.	-20	97	83
COc1cccc(/C(O)=C/c2nc3ccc(C(=O)Nc4cccc(C)c4)cc3[nH]c2=O)c1	1	-5	113	114
NC(=O)NC1NC(=O)NC1=O (stereo not drawn)	-9&-13	4&0	101&100	98&100
CCN(CC)c1ccc(N=C2C(=O)Nc3ccccc32)cc1	19	-23	102	105
CCOC(=O)c1cc2sccc2[nH]1	10	-15	102	103
Cc1ccc(CSc2nc3ccccc3c3nc(CCc4c(C)n[nH]c4C)nn23)cc1	6	-16	103	94
COc1ccc(-n2cc(C(=O)NCCC3=CCCCC3)nn2)cc1	-12	-5	99	103
C=CCn1cnc2c(cnn2-c2ccc(F)cc2)c1=O	12	-6	105	104
CCC(=O)NNc1nc2c(C)c(C)ccc2s1	18	-32	101	105
O=C1C(=C2NCCN2)CC/C1=C\c1ccco1	27	-8	92	108
O=C(Cc1cn2ccsc2n1)Nc1ccccc1Oc1ccccc1	7	-16	102	108
COC(=O)N/N=C/c1ccc(OC)c(OC)c1	18	1	97	99
Cc1cc(C(=O)CN2C(=O)c3cccc(N)c3C2=O)c(C)n1-c1cccc(S(=O)(=O)N2CCOCC2)c1	-53	-53	103	115
COc1ccc(CNC(=O)C(C)NC(C)=O)cc1 (stereo not drawn)	-7	-6	107	106
COC(=O)CSc1nnc(SCC(=O)OC)s1	-5	-5	101	103

The final 3 records of the part above come first, to join the parts:
SMILES	MbtI inh	MenB inh	PV pol inh	PV pol inh intensity
Cc1cc(C(=O)CN2C(=O)c3cccc(N)c3C2=O)c(C)n1-c1cccc(S(=O)(=O)N2CCOCC2)c1	-53	-53	103	115
COc1ccc(CNC(=O)C(C)NC(C)=O)cc1 (stereo not drawn)	-7	-6	107	106
COC(=O)CSc1nnc(SCC(=O)OC)s1	-5	-5	101	103
Cc1cc2n(n1)C(c1ccsc1)Nc1c(C)cccc1-2 (stereo not drawn)	103	-9	100	100
CCn1c(SC)nnc1C1CCCNC1 (stereo not drawn)	-2	15	101	101
COc1cccc(CNC(=O)c2cnc(OC)cc2C(F)(F)F)c1	-8	-12	101	97
C=CCN1C(=O)/C(=N/N=C/c2ccc(OC)c(O)c2)c2ccccc21	9	-122	102	98
CCC12CCCN3CCC4(C(=C(C(=O)OC)C1)Nc1ccccc14)C32 (stereo not drawn)	22	-17	101	102
CC(C)C1Oc2cc3oc(=O)ccc3cc2C1=O (stereo not drawn)	107	-4	101	103
O=C(OCCc1csc2ccccc12)c1ccc(Cl)cc1	-7	-2	106	110
O=C(Cc1cccs1)N1CCOCC1	-9	.	104	106
CSc1ncccc1C(=O)NCc1nnc2ccccn12	-4	5	103	102
Cn1nc(C(=O)NCC2CCCO2)c2c1-c1ccccc1SC2 (stereo not drawn)	49	-11	105	101
Cc1ccc(CNC(=O)C2(S(=O)(=O)c3ccc(C)cc3)CC2)cc1	-4	-1	102	103
CC(N=Cc1c(O)c2ccccc2oc1=O)C(=O)O (stereo not drawn)	13	7	101	103
Cc1ccc(S(=O)(=O)NC(C)C(=O)OCc2cc(=O)n3ccsc3n2)cc1 (stereo not drawn)	3	-15	99	103
O=C(CN(C(=O)Cn1nnc(-c2cccs2)n1)C1CCCC1)NCc1ccccc1	-6	-17	104	102
O=c1ccc(-c2ccc(S(=O)(=O)NC3CC3)o2)n[nH]1	-3	-9	100	103
Cc1cc(C)nc(SCC(=O)NN=C2CCCC2)n1	-10	-32	103	100
Cc1ccccc1Nc1nc(N)nc(CSc2ncn[nH]2)n1	4	-22	100	101
COc1c(O)c2c(=O)cc(OC)c3c4c(OC)cc(=O)c5c(O)c(OC)c(CC(C)OC(=O)c6ccccc6)c(c(c1CC(C)OC(=O)Oc1ccc(O)cc1)c23)c54 (stereo not drawn)	.	-1	101	100
Cc1ccc2nc(Cn3nnc(-c4ccccc4)n3)cn2c1	-20	-16	102	109
O=C(NCC1CCCO1)NC1CCCCC1 (stereo not drawn)	-6	-27	100	103
COc1ccccc1-n1c(SC)nc2ccccc2c1=O	7	-16	101	102
CC1(C)C2CCC1(C)C(NC(=O)c1cc(=O)[nH]c3ccccc13)C2 (stereo not drawn)	28	10	106	106
C=CCN1C(=S)N(c2ccccc2)C2CS(=O)(=O)CC21 (stereo not drawn)	7	4	100	102
